High-throughput results from PubChem.
Hedgehog inh: blocks Sonic Hedgehog signaling. AID 2313. Shh-LIGHT2 Gli-luciferase reporter, 30 h. inhibition, % (test concentration not listed). 2.1% of 22,000 active;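 active means replicate mean of 65% or more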;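 further: pathway switched on by Shh-conditioned medium diluted 1 in 25 in low serum; 100 nL library stock added to about 40 µL; 0% = median of neutral wells and 100% = positive control level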
YB-1 expression: YB-1 expression inhibition. U2OS, qRT-PCR YB-1 vs CDIP delta delta Cp, 16 h; stronger effect = higher value; zero = DMSO, each unit about twofold. delta delta Cp (YB-1 minus CDIP) (concentration not given with the values). 0.37% of 30,000 active. AID 434959;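 active means delta delta Cp rounded down to an integer at or above 3, about 3 SD of DMSO wells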;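 further: higher means less YB-1 transcript or more CDIP transcript relative to DMSO; stock transfer was 100 nL into about 100 µL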
MITF inhib: blocks MITF activity; TRPM1 promoter luciferase, luminescence, 24 h; inhibition, % (no concentration beside the values); 0.28% of 37,000 active; AID 2240;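 active means most replicates at 85% or more, or half of them and the mean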;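 further: human melanocyte line stably carrying TRPM1 promoter luciferase reporter; 0% = vehicle wells and 100% = a positive control; the first replicate is given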
PD-1 reverse act: activators reversing PD-1 mediated T-cell inhibition | AID 2316 | primary human CD4 T cells, PD-L1 beads, CellTiter-Glo 96 h | 29,000 tested, under 10 active | activation, % (concentration not given with the values);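 active means replicate mean of 50% or more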;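 further: 0% = median vehicle wells and 100% = positive control; 100 nL library stock added to about 50 µL; numbers are from one replicate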
Starred values were filed as active, the others as inactive; . = not tested or not shown. The list is partial; count on the stated rates, not on these rows.

smiles	MITF inhib	YB-1 expression	PD-1 reverse act	Hedgehog inh
C=C1C(=O)O[C@@H]2/C=C(/C)[C@H](O)CC(=O)[C@](C)(O)C[C@@H](OC(=O)/C(C)=C/C)[C@@H]12	.	0.18	.	37
C[C@@H]1CN([C@H](C)CO)C(=O)c2cccc(NC(=O)c3ccncc3)c2O[C@@H]1CN(C)Cc1ccc(-c2ccccc2)cc1	1	0.098	-0.4	-5
C[C@@H]1CN([C@H](C)CO)C(=O)c2cccc(NC(=O)C3CC3)c2O[C@@H]1CN(C)CC1CCCCC1	-4	-0.27	1.4	-21
C[C@@H]1CN([C@H](C)CO)C(=O)c2cc(NS(=O)(=O)c3ccc(F)cc3)ccc2O[C@H]1CN(C)S(=O)(=O)c1ccc(F)cc1	4	0.23	-1.5	15
COc1ccc(NC(=O)Nc2ccc3c(c2)C(=O)N([C@H](C)CO)C[C@H](C)[C@@H](CN(C)Cc2ccc(Oc4ccccc4)cc2)O3)cc1	6	0.4	-0.2	14
C[C@@H]1CN([C@H](C)CO)C(=O)c2cc(NC(=O)Nc3ccccc3)ccc2O[C@@H]1CN(C)S(=O)(=O)c1ccccc1	-7	-0.12	2.6	3
C[C@@H]1CN([C@@H](C)CO)C(=O)c2cccc(NS(=O)(=O)c3cccs3)c2O[C@@H]1CN(C)C(=O)NC1CCCCC1	-2	0.044	-0.2	-3
Cc1noc(C)c1NC(=O)Nc1cccc2c1O[C@@H](CN(C)Cc1ccc(Oc3ccccc3)cc1)[C@H](C)CN([C@@H](C)CO)C2=O	32	-0.0018	.	34
C[C@@H]1CCCCO[C@@H](CN(C)S(=O)(=O)c2ccccc2)[C@@H](C)CN([C@H](C)CO)C(=O)c2cc(NC(=O)Nc3ccc(C(F)(F)F)cc3)ccc2O1	9	-0.44	-4.5	-16
C[C@@H]1CN([C@@H](C)CO)C(=O)c2cc(NC(=O)Nc3ccc(C(F)(F)F)cc3)ccc2O[C@@H]1CN(C)C(=O)Nc1ccc2c(c1)OCO2	44	0.13	-3.9	40
C[C@@H]1CN([C@H](C)CO)C(=O)Cc2cc(NS(C)(=O)=O)ccc2O[C@H]1CN(C)C	0	0.06	2.1	4
C[C@H](CO)N1C[C@H](C)[C@H](CN(C)Cc2ccccc2)Oc2ccc(NC(=O)Nc3ccccc3)cc2CC1=O	-6	0.094	.	19
OC(COCc1ccccc1)Cn1c2ccccc2c2ccccc21 (centres undefined)	5	-0.049	-2.5	11
COc1ccc(S(=O)(=O)N(C)C[C@@H]2Oc3c(NC(=O)Nc4ccc(C(F)(F)F)cc4)cccc3C(=O)N([C@@H](C)CO)C[C@H]2C)cc1	8	-0.074	0.5	-12
C[C@H]1CN([C@@H](C)CO)C(=O)c2cc(NC(=O)Nc3ccc(C(F)(F)F)cc3)ccc2O[C@@H]1CN(C)C	3	-0.34	.	.
Cn1c(=O)c2c(nc(NCCN3CCOCC3)n2Cc2cccc(F)c2)n(C)c1=O	-12	.	-1.0	.
Cn1nc(C(=O)O)c2ccccc2c1=O	-10	-0.1	-0.1	.
O=C1N(C2CCCCC2)C(=NC2CCCCC2)SC12CC2	6	0.45	-2.0	-7
COC(=O)c1ccccc1NC(=O)CSc1nnnn1C1CCCCC1	-10	.	-2.6	.
COc1ccc(CN(C)C[C@@H]2Oc3ccc(NS(=O)(=O)c4ccc(C)cc4)cc3C(=O)N([C@H](C)CO)C[C@H]2C)cc1	0	0.68	.	33
COc1ccc(NC(=O)N(C)C[C@@H]2Oc3ccc(NC(=O)Nc4ccc(F)cc4)cc3CC(=O)N([C@H](C)CO)C[C@@H]2C)cc1	0	0.11	.	.
C=CCSc1nnc(NC(=O)c2nc(SCC)ncc2Cl)s1	-3	.	2.4	.
COc1ccccc1OCC(=O)Nc1cccc(-c2nc3ccccc3s2)c1	-4	.	1.7	.
C[C@H]1CN([C@@H](C)CO)C(=O)c2cc(NS(=O)(=O)c3cn(C)cn3)ccc2O[C@H]1CN(C)C(=O)NC1CCCCC1	-6	0.32	0.8	.
C[C@H]1CN([C@@H](C)CO)C(=O)Cc2cc(NC(=O)Cc3ccccc3)ccc2O[C@@H]1CN(C)S(=O)(=O)c1ccccc1	-15	0.24	-0.9	-8
CCCN1CC=C2C(C#N)=C(N)C(C#N)(C#N)C3(C(=O)Nc4ccccc43)C2C1 (centres undefined)	10	0.36	-13	22
C[C@@H]1CN([C@H](C)CO)C(=O)c2cc(NC(=O)Nc3ccc(F)cc3)ccc2O[C@@H]1CN(C)Cc1ccc(Cl)c(Cl)c1	14	-0.19	.	-42
Cc1ccccc1OCC(=O)Nc1cc(-c2nc3ccccc3s2)ccc1Cl	22	.	0.5	.
COc1ccc(CN(C)C[C@H]2OCCCC[C@@H](C)Oc3ccc(NC(=O)Nc4ccc(F)cc4)cc3C(=O)N([C@H](C)CO)C[C@@H]2C)cc1	-8	0.011	-1.7	28
CC(Oc1ccc(Cl)cc1Cl)C(=O)Nc1cccc(-c2nnc(-c3ccccc3)o2)c1 (centres undefined)	-51	.	3.9	.
COc1cccc(C(=O)Nc2cccc(OCC(=O)O)c2)c1	4	.	-0.5	.
Cc1noc(C)c1S(=O)(=O)Nc1cccc2c1O[C@H](CN(C)C(=O)Nc1ccc(F)cc1)[C@H](C)CN([C@@H](C)CO)C2=O	0	-0.46	-0.6	-54
CSc1ccccc1-n1nnnc1SCC(=O)Nc1ccccc1C	1	.	-1.4	.
CC(C)NC(=O)N(C)C[C@H]1Oc2ccc(NC(=O)Nc3ccc4c(c3)OCO4)cc2CC(=O)N([C@@H](C)CO)C[C@@H]1C	-3	0.26	-1.0	-24
Cc1ccc(S(=O)(=O)NCCCO)cc1C(=O)O	-10	.	2.0	.
CC(C)NC(=O)N(C)C[C@@H]1Oc2ccc(NC(=O)CCCCCC(=O)Nc3ccccc3N)cc2C(=O)N([C@@H](C)CO)C[C@@H]1C	-17	-0.2	0.2	.
Cc1cc(C)c(S(=O)(=O)N(CC(=O)O)C2CCCCC2)c(C)c1	3	.	0.6	.
C[C@H]1CN([C@@H](C)CO)C(=O)c2cc(NS(=O)(=O)c3cn(C)cn3)ccc2O[C@H]1CN(C)Cc1ccc2c(c1)OCO2	2	0.11	3.3	.
C[C@@H]1CN([C@@H](C)CO)C(=O)c2cccc(NC(=O)c3cnccn3)c2O[C@H]1CN(C)S(=O)(=O)c1ccc(Cl)cc1	-3	-0.52	0.5	8
Nc1nncn1C(=O)CCCOc1ccccc1	-11	.	2.7	.

Entries of single compounds from above.
Cc1cc(C)c(S(=O)(=O)N(CC(=O)O)C2CCCCC2)c(C)c1 across the screens: MITF inhib: 3; YB-1 expression: .; PD-1 reverse act: 0.6; Hedgehog inh: .
Nc1nncn1C(=O)CCCOc1ccccc1 across the screens: MITF inhib: -11; YB-1 expression: .; PD-1 reverse act: 2.7; Hedgehog inh: .

More entries:
smiles	MITF inhib	YB-1 expression	PD-1 reverse act	Hedgehog inh
Cc1noc(C)c1NC(=O)N(C)C[C@H]1Oc2ccc(N(C)C)cc2C(=O)N([C@H](C)CO)C[C@@H]1C	12	-0.24	-1.5	.
COc1ccc(NC(=O)Nc2cccc3c2O[C@@H](CN(C)Cc2ccc(Cl)c(Cl)c2)[C@@H](C)CN([C@H](C)CO)C3=O)cc1	27	0.027	-2.6	-58
COc1ccc(NC(=O)N(C)C[C@H]2Oc3c(NC(=O)Nc4ccc(C(F)(F)F)cc4)cccc3C(=O)N([C@@H](C)CO)C[C@H]2C)cc1	7	-0.55	-2.2	21
O=C1CCCC2=C1C(c1ccccc1Cl)N=C(Nc1nc3ccccc3s1)N2 (centres undefined)	23	-0.071	-0.5	28
C[C@H]1[C@H](C)CC[C@]2(C(=O)O)CC[C@]3(C(=O)O)C(=CCC4[C@@]5(C)CC[C@H](O[C@@H]6O[C@@H](C)[C@H](O)[C@@H](O)[C@H]6O)C(C)(C)C5CC[C@]43C)[C@H]12 (some centres undefined)	2	-0.43	-0.4	-3
COc1ccc(S(=O)(=O)N(C)C[C@@H]2Oc3ccc(NS(C)(=O)=O)cc3CC(=O)N([C@H](C)CO)C[C@@H]2C)cc1	-4	-0.13	.	-6
C[C@H]1CN([C@@H](C)CO)C(=O)c2cccc(NC(=O)C3CCCCC3)c2O[C@@H]1CN(C)S(=O)(=O)c1ccc(Cl)cc1	-4	-0.56	0.9	27
Cc1noc(C)c1NC(=O)Nc1cccc2c1O[C@@H](CN(C)CC1CCCCC1)[C@H](C)CN([C@@H](C)CO)C2=O	-2	-0.49	.	15
CC(C)NC(=O)N(C)C[C@H]1Oc2ccc(NC(=O)CCC(F)(F)F)cc2C(=O)N([C@@H](C)CO)C[C@@H]1C	-3	-0.32	.	.
C[C@H](CO)N1C[C@H](C)[C@H](CN(C)C(=O)Nc2ccc(F)cc2)Oc2ccc(NC(=O)Cc3ccccc3)cc2C1=O	-14	-0.1	-1.1	-5
C[C@@H]1CCCCO[C@H](CN(C)C(=O)c2ccccc2)[C@@H](C)CN([C@H](C)CO)C(=O)c2cc(NS(=O)(=O)c3cccs3)ccc2O1	-2	0.22	-0.2	17
NC(=O)C1C2CCC(C2)C1C(=O)c1ccccc1 (centres undefined)	6	-0.14	1.4	-15
CCn1c(SCc2cccc(OC)c2)nnc1-c1cccnc1	-12	.	1.9	.
CC(C)NC(=O)Nc1ccc2c(c1)CC(=O)N([C@H](C)CO)C[C@H](C)[C@H](CN(C)Cc1ccc(C(F)(F)F)cc1)O2	-12	-0.2	.	32
C[C@@H]1CN([C@H](C)CO)C(=O)c2cc(NC(=O)CCC(F)(F)F)ccc2O[C@H]1CN(C)Cc1ccc(Cl)c(Cl)c1	2	-0.17	.	.
C[C@H](CO)N1C[C@H](C)[C@H](CN(C)C(=O)Nc2ccc3c(c2)OCO3)Oc2ccc(NC(=O)CCCCCC(=O)Nc3ccccc3N)cc2CC1=O	-17	-0.24	0.7	.
COc1ccc(CN(C)C[C@@H]2Oc3c(NC(=O)NC(C)C)cccc3C(=O)N([C@H](C)CO)C[C@@H]2C)cc1	-4	2.2	2.1	-33
Cc1ccc(S(=O)(=O)Nc2ccc3c(c2)CC(=O)N([C@@H](C)CO)C[C@H](C)[C@@H](CN(C)C(=O)Nc2ccc4c(c2)OCO4)O3)cc1	-4	0.22	0.8	-17
Cc1cccc(NC(=O)c2ccc(C)c(S(=O)(=O)N3CCCC3)c2)c1	3	-0.37	-0.9	-49
C[C@@H]1CCCCO[C@H](CN(C)C(=O)C2CCCCC2)[C@@H](C)CN([C@H](C)CO)C(=O)c2cc(NC(=O)CCCCCC(=O)Nc3ccccc3N)ccc2O1	11	-0.24	2.1	.
C[C@@H]1CN([C@@H](C)CO)C(=O)c2cccc(NC(=O)C3CC3)c2O[C@@H]1CN(C)C(=O)NC1CCCCC1	10	0.085	1.0	19
COC(=O)c1c(NC(=O)COc2ccccc2)sc(C(N)=O)c1C	-7	.	-1.9	.
COc1ccc(NC(=O)Nc2ccc3c(c2)C(=O)N([C@H](C)CO)C[C@H](C)[C@@H](CN(C)C(=O)Nc2ccc4c(c2)OCO4)OCCCC[C@@H](C)O3)cc1	0	-0.13	0.8	-17
O=c1[nH]c2ccccc2nc1/C=C(/O)c1cccc2ccccc12	5	0.14	-1.7	.
C[C@@H]1CCCCO[C@H](CN(C)C(=O)CCCN(C)C)[C@@H](C)CN([C@H](C)CO)C(=O)c2cc(NC(=O)CCC(F)(F)F)ccc2O1	-4	-0.4	.	77*
C[C@H](CO)N1C[C@H](C)[C@@H](CN(C)C)Oc2ccc(NS(=O)(=O)c3ccc(F)cc3)cc2C1=O	2	-0.16	-0.6	-4
O=C(c1ccc(Cl)cc1)N1CCN(c2ccc([N+](=O)[O-])c(NCc3ccccn3)c2)CC1	12	.	-2.0	.
CC(Sc1nc(N)c2c3c(sc2n1)COC(C)(C)C3)C(=O)Nc1ccccc1 (centres undefined)	-5	.	-8.1	.
